# Bioassay records: PubChem, National Center for Advancing Translational Sciences (NCATS)
# Vaccinia mCherry – vaccinia inhibition (mCherry reporter); Vaccinia virus mCherry reporter infection, fluorescence; about a quarter of the inactives have no number; Potency, µM (titrated, usually from 36.5 µM), for inactives: at the top dose activity change, negative = inhibition, hits mostly inhibitors; 310,000 compounds, 0.63% hits; active = well fitted inhibition curve with a large enough effect; inconclusive = small, poorly fitted or top-dose-only effect; inactive = no such curve, though single readings can be large or run the other way; tested in A549 cells; further: nearly all actives have a fitted effect of over 35% in size; inactives centre near -10
# Vaccinia Venus – inhibitors of vaccinia virus (Venus reporter); Vaccinia virus Venus reporter expression, fluorescence; Potency, µM (series often up to 36.5 µM), for the others: at the top dose activity change, negative = inhibition, actives largely listed as inhibitors; AID 720580; 330,000 compounds, 0.46% hits; active means well fitted inhibition curve with a large enough effect; inconclusive means small, poorly fitted or top-dose-only effect; inactive means no such curve, though single readings can be large or run the other way; tested in A549 cells; further: nearly all actives have a fitted effect of over 30% in size; inactives centre near -10
# Numbers without * were called inactive; i = inactive; ? = inconclusive; · = not tested or not shown; [ ] = another dose, or the depositor's remark. On the % scale 0 is the no-effect control and ±100 the full control effect; potency means the concentration at half of the fitted maximal effect.
SMILES,Vaccinia mCherry,Vaccinia Venus
CC(NC(=O)COc1ccccc1)C(=O)NC1=NCCS1 (configuration not stated),-1%,-8%
Nc1cc([N+](=O)[O-])cc(N)c1N,-25%,-13%
Cc1ccc(C(=O)OCC(=O)NNC(=O)c2ccc([N+](=O)[O-])cc2)o1,-8%,-6%
CCOC(=O)c1sc2nc(N3CCOCC3)c3c(c2c1N)CCCC3,-30%,?
CCS(=O)(=O)N1CCc2cc(C(=O)NCc3ccccc3OC)ccc21,2%,-5%
CC(=O)Nc1ccc(NC(=O)Cn2c(=O)n(-c3ccc(F)cc3)c(=O)c3oc4ccccc4c32)cc1,15%,-9%
O=C(O)C1CCCN(C(=O)/C=C/c2ccccc2)CC1 (configuration not stated),i,-8%
CC(C)(C)c1cc(C(C)(C)C)cc(S(=O)(=O)CCc2ccccn2)c1,-23%,-15%
COc1ccc(CCN(C(=O)C(F)(F)F)C(C(=O)NC2CCCC2)c2cccs2)cc1OC (configuration not stated),-13%,-24%
COc1ccc(N2C(=O)CC(SCCc3nc4ccccc4[nH]3)C2=O)cc1 (configuration not stated),-9%,-5%
CCOC(=O)c1[nH]c2ccccc2c1NC(=O)c1cc(Cl)ccc1Cl,-16%,-7%
Cc1[nH]n(-c2cccc(Cl)c2)c(=O)c1-c1ccc(Cl)cc1,?,28µM*
COc1cc(OC)c(NC(=O)NCc2cccn2Cc2ccccc2)cc1Cl,-9%,-3%
CN(CC(=O)NCc1ccncc1)S(=O)(=O)c1ccc(Br)cc1,-10%,-1%
COc1ccccc1NC(=O)N1CCC(c2nc3cc(C)c(C)cc3[nH]2)CC1,-26%,?
COc1ccc(-c2noc(CNC(=O)c3cc(OC)c(OC)c(OC)c3)n2)cc1,-4%,-4%
COc1ccc(C(=O)N2CCCCC2c2cc(C(=O)NCc3ccccc3)no2)cc1 (configuration not stated),i,-30%
O=C(N/N=C/c1c[nH]c2ccccc12)c1ccn(Cc2ccc(Cl)cc2)n1,·,-25%
COc1ccc(CN2C(=O)C(CC(=O)NCCCCc3ccccc3)CC(C(=O)N3CCOCC3)=C2C)cc1 (configuration not stated),5%,-18%
CCN1C(=O)/C(=C/c2ccc(C)s2)SC1=Nc1ccc(OC)cc1,?,-30%
CS(=O)(=O)N1CCN(c2ccc(NC(=O)Cc3ccccc3)cc2)CC1,i,-9%
Cc1ccc(C(NC(=O)c2ccccc2)C(Cl)(Cl)Cl)cc1 (configuration not stated),-11%,-15%
COC(=O)c1c(C)oc2ccc(N(C(=O)Oc3ccccc3)S(=O)(=O)c3ccc(Cl)c([N+](=O)[O-])c3)cc12,-4%,-15%
CN(Cc1ccc(Cl)s1)C(=O)CN1C(=O)N(C)C2(CCCCC2)C1=O,-12%,-14%
CN1CCN(Cc2cccc(Oc3ccc(Cl)cc3)c2)CC1,-11%,-18%

# In the list so far, these contain a Cl atom:
SMILES,Vaccinia mCherry,Vaccinia Venus
CCOC(=O)c1[nH]c2ccccc2c1NC(=O)c1cc(Cl)ccc1Cl,-16%,-7%
Cc1[nH]n(-c2cccc(Cl)c2)c(=O)c1-c1ccc(Cl)cc1,?,28µM*
COc1cc(OC)c(NC(=O)NCc2cccn2Cc2ccccc2)cc1Cl,-9%,-3%
O=C(N/N=C/c1c[nH]c2ccccc12)c1ccn(Cc2ccc(Cl)cc2)n1,·,-25%
Cc1ccc(C(NC(=O)c2ccccc2)C(Cl)(Cl)Cl)cc1 (configuration not stated),-11%,-15%
COC(=O)c1c(C)oc2ccc(N(C(=O)Oc3ccccc3)S(=O)(=O)c3ccc(Cl)c([N+](=O)[O-])c3)cc12,-4%,-15%
CN(Cc1ccc(Cl)s1)C(=O)CN1C(=O)N(C)C2(CCCCC2)C1=O,-12%,-14%
CN1CCN(Cc2cccc(Oc3ccc(Cl)cc3)c2)CC1,-11%,-18%

# Next records.
SMILES,Vaccinia mCherry,Vaccinia Venus
O=C(Nc1ccc(Cl)cc1F)c1cc(S(=O)(=O)NCc2ccc3c(c2)OCO3)ccc1F,i,-14%
Cc1ccc2c(COC(=O)CNC(=O)c3ccco3)cc(=O)oc2c1C,-19%,-12%
CC(C)Nc1nc(NCCOc2ccccc2Cl)c2sccc2n1,-29%,?
COc1cc(NC(=O)CN2CCCN(Cc3cccc(F)c3)S2(=O)=O)cc(OC)c1,-11%,-11%
Cc1nn(C)c(C)c1CN(C)C(=O)c1nn2c(c1Br)NC(c1cccs1)CC2C(F)(F)F (configuration not stated),?,-29%
CCn1c(COc2ccccc2)nnc1SCC(=O)Nc1ccc2c(c1)OCCO2,·,-1%
CCCCCC1CC(=O)N(Cc2ccc(Cl)cc2)C(=O)N1 (configuration not stated),·,-17%
C[C@H](CO)N1C[C@H](C)[C@@H](CN(C)S(=O)(=O)c2ccccc2)Oc2c(NC(=O)Nc3ccc(C(F)(F)F)cc3)cccc2C1=O,-7%,?
COc1cc(CN2CCCC(N3CCN(c4ccccc4C)CC3)C2)cc(Cl)c1O (configuration not stated),-32%,-5%
COc1ccccc1N1CCN(C(=O)c2oc3ccccc3c2N)CC1,-13%,-3%
COc1cc(CCN2C(=O)c3cccc4cccc(c34)C2=O)c(S(=O)(=O)NCCCO)cc1OC,-7%,3%
CCSc1ccc([C@@H]2[C@H]3C(=O)N(CC)C(=O)[C@H]3[C@]3(C(=O)OC)CCCCN23)cc1,-5%,-10%
CCc1ccccc1N(CC(=O)NCc1ccco1)C(=O)CCC(=O)Nc1nccs1,-8%,1%
CC(C)(C)S(=O)(=O)/C(C#N)=C/c1cccn1S(=O)(=O)c1ccccc1,i,7%
O=Cc1ccc(OCC(=O)N2CCc3ccccc32)c(Br)c1,-27%,-23%
COC(=O)c1c(C)oc2ccc(N(C(=O)c3ccncc3)S(=O)(=O)c3ccc(OC)cc3)cc12,-29%[7.34 µM],-27%[7.34 µM]
COc1ccc(C(=O)Nc2ccc(-c3nc4ncccc4o3)cc2)cc1,-13%,-5%
CCOc1ccc(NC(c2ccc(Cl)cc2)c2nnc(-c3cccc(F)c3)o2)cc1 (configuration not stated),-14%,-11%
O=C(NNC(=O)[C@@H]1CCCC[C@@H]1C(=O)O)c1cccs1,-17%,-12%
CCCc1cnc2c(c1SCC(=O)N(C)c1ccccc1)c(=O)n(C)c(=O)n2C,i,-10%
CCOC(=O)c1c(NC(=O)c2ccc(S(=O)(=O)N(CC(C)C)CC(C)C)cc2)sc2c1CCN(CC)C2,-1%,-12%
CCCCOC(=O)Nc1cccc(Cl)c1C,i,-3%
COCC(=O)n1nc(-c2ccccc2)nc1NCc1ccc(N(C)C)cc1,i,-5%
N#C/C(=C1/CCCCCN1)c1nc2ccccc2s1,i,-11%
COc1ccc(OC)c(/C=C/c2nc3ccccc3nc2C)c1,?,?
# More structures:
SMILES,Vaccinia mCherry,Vaccinia Venus
CCOC(=O)c1c(C)cc(O)c(C)c1O,?,?
Cc1ccc(NC(=O)Cn2c(=O)cnc3ccccc32)cc1S(=O)(=O)N(C)C,-19%,-17%
Cc1ccc(CNC(=O)c2cc3c(=O)oc4ccc(C)cc4c3s2)cc1,?,?
C=C(C)CNC(=S)N/N=C/c1c(F)cccc1F,-9%,-19%
Cc1ccc(S(=O)(=O)N(C)C)cc1NC(=O)C1CCCC1,-17%,-3%
O=C(NCCC1CCCCN1S(=O)(=O)c1ccc(Cl)cc1)C(=O)NCc1ccco1 (configuration not stated),?,?
O=C(Cc1ccsc1)N1CCN(S(=O)(=O)c2cc(C(F)(F)F)cc(C(F)(F)F)c2)CC1,-18%,-15%
NC(=O)CC1C(=O)N(c2ccc(F)cc2)C(=O)N1NC(=O)CCc1ccccc1 (configuration not stated),-11%,-7%
CCONc1ncnc2nonc12,i,-14%
CCCCOc1ccc(C(=O)N(CC)CC(=O)NCc2cccs2)cc1,?,-26%
CCOC(=O)C1CCCN(S(=O)(=O)Cc2ccc(Cl)cc2)C1 (configuration not stated),-3%,-16%
CCOC(=O)c1[nH]ncc1CN1CCN(Cc2ccc(C)cc2)C(CCO)C1 (configuration not stated),-19%,-3%
CCn1c(=O)c(=O)n(CC)c2cc(N3CCCCC3)c(NC(=O)c3ccc(OC)c(OC)c3)cc21,-16%,-10%
CSc1ncc(CO)n1Cc1ccccc1,-5%,2%
CC1CC(c2ccccc2)n2nc(NC(=O)c3ccco3)nc2N1 (configuration not stated),i,-8%
CN(C)CCN(C(=O)c1cccc2ccccc12)c1nc2cc3c(cc2s1)OCO3,-12%,-28%
COc1ccc(C)c2sc(N(CCCN(C)C)C(=O)c3ccc4c(c3)OCCO4)nc12,-21%,?
COc1ccc(S(=O)(=O)N2CCN(C(=O)/C=C/c3ccco3)CC2)cc1,-8%,0%
CN(C(=O)C1CCCN(S(=O)(=O)c2cccc([N+](=O)[O-])c2)C1)C1CCS(=O)(=O)C1 (configuration not stated),-9%,-2%
COc1ccc(NC(=O)CCCS(=O)(=O)c2nc(-c3ccc(OC)c(OC)c3)cc(C(F)(F)F)n2)cc1OC,-19%[7.34 µM],-12%[7.34 µM]
Cc1cc(C)cc(NC(=O)C2C3C=CC4(O3)C2C(=O)N(CCCN2CCCCC2)C4C(=O)NC2CCCCC2)c1 (configuration not stated),-1%,-10%
COc1ccccc1NC(=O)N1CCCC1C(=O)NC1CCCCC1 (configuration not stated),-4%,-7%
Cc1ccc(N(CC(=O)Nc2cccc(Cl)c2C)S(=O)(=O)c2c(C)noc2C)cc1,-15%,0%
O=C(O)c1ccccc1C(=O)Nc1ccc(S(=O)(=O)NC2CCCCC2)cc1,-15%,-7%
COc1ccccc1OCC(=O)N(Cc1ccc(Cl)cc1)CC1CCCO1 (configuration not stated),-8%,-6%
# Remaining list, next part
SMILES,Vaccinia mCherry,Vaccinia Venus
CC(C)n1cnnc1SCC(=O)Nc1ccc(N2CCCCC2)cc1,?,-13%
CCC(=O)Nc1ccccc1C(=O)OCC(=O)Nc1ccc(S(N)(=O)=O)cc1,0%,-10%
COc1ccc(NS(=O)(=O)c2ccc(C)c(NC(=O)CNC(=O)c3ccco3)c2)cc1,-6%,5%
CN(C(=O)COC(=O)CNS(=O)(=O)/C=C/c1ccccc1)C1CCS(=O)(=O)C1 (configuration not stated),-23%,-11%
Cc1sc(NC(=O)c2cccnc2)nc1-c1ccccc1,-7%,-8%
CCOc1ccccc1NS(=O)(=O)c1cnc(N)nc1,-12%,-8%
CC(Sc1nc(N)c(NC(=O)c2ccc(Br)o2)c(=O)[nH]1)C(=O)O (configuration not stated),-8%,-13%
COc1ccc(S(=O)(=O)N2CCC(C(=O)Nc3nccs3)CC2)cc1,i,-11%
CCc1nccn1CCC(=O)N1CCCC(N2CCN(c3ccccc3F)CC2)C1 (configuration not stated),-4%,-17%
COc1ccc(-c2csc3[nH]c(=S)n(-c4ccccc4)c(=O)c23)cc1OC,i,-15%
CCCCCCN1CCN(C2CN(Cc3cn(Cc4ccc(F)cc4)nn3)S(=O)(=O)C2)CC1 (configuration not stated),8%,-1%
CCOC(=O)CSc1nnc(CNC(=O)c2cccc(C)c2)n1C,i,0%
N#C/C(=C\c1ccccc1)C(=O)NCCN1CCOCC1,-21%,-16%
CC(C)OCCCNC(=O)CN1C(=O)CC(C)(C)S(=O)(=O)c2ccccc21,-5%,-3%
Cn1c2ccccc2c2cc(/C=N/NC(=O)c3cc(O)ccc3O)ccc21,-1%,?
CC1(C)CC(Cc2ccc(C(=O)c3ccccc3)cc2)N(C(=O)OC(C)(C)C)N1 (configuration not stated),?,-28%
Cc1cc(-c2nnnn2-c2ccc(C(F)(F)F)cc2)no1,-11%,-3%
O=C(NCCc1ccccc1)c1ccc(CSc2nc3ccncc3n2Cc2ccc(F)cc2)cc1,?,?
O=C(Nc1nccs1)C1CC(=O)N(c2ccccc2)C1 (configuration not stated),-4%,11%
CCOC(=O)c1c(NC(=O)CS(=O)(=O)c2cn(CC)c3ccccc23)sc2c1CCCCC2,0%,-4%
COC(=O)CNC(c1ccccc1)c1cc(Br)ccc1NS(=O)(=O)c1ccccc1 (configuration not stated),-14%,-5%
Cc1ccccc1CN(C)C(=O)CNC(=O)c1ccc2ccccc2c1,-21%,-11%
Cc1nc2ccccc2n1S(=O)(=O)N(C)C,-14%,-8%
CCn1c(C(C)NC(=O)c2ccc(C)cc2)n[nH]c1=S (configuration not stated),i,-4%
CCOC(=O)C1CCN(C(=O)CCS(=O)(=O)c2ccc3c(c2)CC(C)N3C(=O)CC)CC1 (configuration not stated),-27%,-7%
# Following part
SMILES,Vaccinia mCherry,Vaccinia Venus
C/C(CC(=O)NCc1ccco1)=N\NC(=O)C(c1ccccc1)c1ccccc1,·,-6%
COc1c(C)cc(C(=O)C2CCCN(C(=O)Cn3ccc(C)n3)C2)cc1C (configuration not stated),i,-5%
COc1ccc(C(=O)Oc2c(Sc3ccccc3)c(C)nn2-c2ccccc2)cc1OC,-19%,-6%
CN(Cc1ccno1)Cc1cn(C)nc1-c1ccc(Oc2ccccc2)cc1,-9%,-12%
CCN(C(=O)Cn1ncc2c(=O)oc3ccc(C)cc3c21)c1cc(OC)ccc1OC,-4%,-17%
[O-][n+]1ccccc1/C=C/c1ccccc1,i,-9%
CC(C)N1C(=O)C2ON(c3ccccc3)C(c3cccs3)C2C1=O (configuration not stated),-22%,-16%
COC(=O)[C@H](CC(C)C)NC(=O)CC[C@H]1O[C@@H](n2ccc(=O)[nH]c2=O)[C@H](O)[C@@H]1O,4%,0%

# Quoted at random: 2 entries already listed
SMILES,Vaccinia mCherry,Vaccinia Venus
CC(C)N1C(=O)C2ON(c3ccccc3)C(c3cccs3)C2C1=O (configuration not stated),-22%,-16%
[O-][n+]1ccccc1/C=C/c1ccccc1,i,-9%
